Compound activity from PubChem BioAssay.
PV pol inh: poliovirus RdRp elongation inhibitors, primary screen, biochemical, fluorescence polarization, total intensity; poliovirus polymerase elongation; active compounds read low; actives 0.66% (n = 150,000); % elongation, % (compound at 16.7 µg/mL); in the data active = % elongation below about 90%; also: some results filed as inactive read as strong as hits
Target sequence (P03300 1749-2209 limits assumed): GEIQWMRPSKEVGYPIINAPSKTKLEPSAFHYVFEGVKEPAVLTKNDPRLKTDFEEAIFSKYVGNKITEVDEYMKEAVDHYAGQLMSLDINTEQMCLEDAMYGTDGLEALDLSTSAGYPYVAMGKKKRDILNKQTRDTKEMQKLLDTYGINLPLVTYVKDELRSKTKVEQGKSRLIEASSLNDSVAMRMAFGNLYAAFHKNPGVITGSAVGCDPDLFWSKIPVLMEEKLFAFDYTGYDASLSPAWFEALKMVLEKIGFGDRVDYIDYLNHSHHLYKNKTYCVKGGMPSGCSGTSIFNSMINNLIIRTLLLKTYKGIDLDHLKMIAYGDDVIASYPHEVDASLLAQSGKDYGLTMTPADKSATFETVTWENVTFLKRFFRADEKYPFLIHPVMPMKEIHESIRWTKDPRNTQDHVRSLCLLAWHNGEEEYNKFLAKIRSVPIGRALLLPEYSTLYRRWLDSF
PV pol inh intensity: further read-out of PV pol inh, marked with its call; % elongation; measured here: total intensity read-out; formula for this scale not given here;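 total fluorescence in place of polarization; lower means less elongation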
Starred values were filed as active, the others as inactive. Some of the compounds tested (hit frequency here may not be typical).

For COc1ccc(S(=O)(=O)N(CCc2ccccc2)CC(=O)Nc2cc(C)cc(C)c2)cc1OC the results were PV pol inh 106.0 and PV pol inh intensity 109.0.
`COc1ccc(C(=O)N(c2ccc(C)cc2)S(=O)(=O)c2ccc(C)cc2)cc1` gave PV pol inh 100.0 and PV pol inh intensity 97.0.
CCCCOC(=O)c1ccc(Nc2ncnc3[nH]ncc23)cc1 was read as PV pol inh 101.0 and PV pol inh intensity 106.0.
Screening CCOC(=O)C1CCCN(C(=O)Cn2ncc3c4ccccc4n(Cc4ccccc4)c3c2=O)C1 (stereo unspecified) returned PV pol inh 106.0 and PV pol inh intensity 105.0.
For O=C(CC1N=C2c3ccccc3N=C(SCC(=O)Nc3cccc(C(F)(F)F)c3)N2C1=O)NCc1cccs1 (stereo unspecified) the results were PV pol inh 114.0 and PV pol inh intensity 110.0.
Screening O=C(CN1CCSc2ccccc21)N1CCN(c2ccc(F)cc2)CC1 returned PV pol inh 108.0 and PV pol inh intensity 115.0.
COc1ccc(Br)cc1CN1C(=O)c2ccccc2C1C(=O)NC1CCCCCC1 (stereo unspecified) was read as PV pol inh 108.0 and PV pol inh intensity 111.0.
`CCN(CC)CCCNC(=O)CN1N=C(c2ccc(OC)cc2)CCC1=O` gave PV pol inh 102.0 and PV pol inh intensity 98.0.
Screening CCc1ccc(OCC(=O)N2CCN(CCc3ccncc3)CC2)cc1 returned PV pol inh 102.0 and PV pol inh intensity 96.0.
COC(=O)c1c(SC)nc2ccccc2c1OCc1ccc(Cl)cc1 was read as PV pol inh 98.0 and PV pol inh intensity 100.0.
Screening Cc1ccccc1Cn1c2ccccc2c2cnn(CC(=O)N3CCC(C)CC3)c(=O)c21 returned PV pol inh 102.0 and PV pol inh intensity 105.0.
`O=C(NCCc1ccccc1)c1cc(-c2ccc(Cl)c(Cl)c2)on1` gave PV pol inh 105.0 and PV pol inh intensity 109.0.
COc1ccc(C(=O)NCC(c2ccc(N(C)C)cc2)N2CCCC2)c(OC)c1 (stereo unspecified) was read as PV pol inh 105.0 and PV pol inh intensity 106.0.
For CCCCNc1nc2c(S(=O)(=O)c3ccc(C)cc3)nnn2c2ccsc12 the results were PV pol inh 107.0 and PV pol inh intensity 103.0.
`CCOC(=O)c1nnn(CC(=O)NC(=O)Nc2ccccc2F)c1C(=O)OCC` gave PV pol inh 101.0 and PV pol inh intensity 103.0.
Screening CC(C)COc1ccc(C(=O)N2CCCCC2CCN2CCCCC2)cc1 (stereo unspecified) returned PV pol inh 105.0 and PV pol inh intensity 109.0.
Screening Cc1nn(-c2ccccc2)c2nc3c(cc12)C(=O)CCC3 returned PV pol inh 104.0 and PV pol inh intensity 103.0.
Screening O=C(Nc1cccc(C(=O)OCc2cc(=O)n3nc(C4CC4)sc3n2)c1)c1ccccc1 returned PV pol inh 102.0 and PV pol inh intensity 97.0.
Screening COc1ccc(OC)c(NC(=O)CSC2=Nc3ccccc3C3=NC(CC(=O)NCc4ccco4)C(=O)N23)c1 (stereo unspecified) returned PV pol inh 99.0 and PV pol inh intensity 104.0.
For Cc1c(Cl)cccc1NC(=O)CCS(=O)(=O)c1ccc2c(c1)CC(C)N2C(=O)C1CC1 (stereo unspecified) the results were PV pol inh 113.0 and PV pol inh intensity 113.0.
COc1ccc(CN2C(=O)c3ccccc3C2C(=O)NCCc2ccccc2)c(OC)c1 (stereo unspecified) was read as PV pol inh 105.0 and PV pol inh intensity 111.0.
For Cc1c(NC(=O)Nc2ccc(F)c(Cl)c2)c(=O)n(-c2ccccc2)n1C the results were PV pol inh 107.0 and PV pol inh intensity 107.0.
COc1ccc(CCNC(=O)CN2C(=O)COc3ccc(S(=O)(=O)N4CCCC4)cc32)cc1OC was read as PV pol inh 104.0 and PV pol inh intensity 109.0.
`O=C(CN1C(=O)C(c2ccc(F)cc2)=NC12CCCCCC2)Nc1ccc(F)c(Cl)c1` gave PV pol inh 107.0 and PV pol inh intensity 113.0.
Screening COc1ccccc1-c1cc(C(=O)N2CCN(c3ccccc3)CC2)no1 returned PV pol inh 103.0 and PV pol inh intensity 108.0.
`COc1ccc(C2c3c(n(C)c4ccccc34)C(=O)N2CC(=O)Nc2ccc(C)cc2Cl)cc1` (stereo unspecified) gave PV pol inh 101.0 and PV pol inh intensity 98.0.
`CCc1ccccc1NC(=O)c1cnn2c(C(F)(F)F)cc(-c3ccc(OC)c(OC)c3)nc12` gave PV pol inh 101.0 and PV pol inh intensity 102.0.
For CCC1CN(C(=O)N2CCC(C(=O)NCCN(CC)CC)CC2)c2ccccc2O1 (stereo unspecified) the results were PV pol inh 106.0 and PV pol inh intensity 112.0.
Screening COc1ccccc1-c1nn2c(=O)cc(CN3CCN(C(=O)Nc4ccc(C)cc4Cl)CC3)nc2s1 returned PV pol inh 108.0 and PV pol inh intensity 111.0.
CCCN(CCC)CC(O)Cn1cc(/C=C/C(=O)c2ccc(OC)cc2)c2ccccc21 (stereo unspecified) was read as PV pol inh 104.0 and PV pol inh intensity 98.0.
For Cc1ccc(NC(=O)CSc2nc3n[nH]c(C)c3c(=N)n2-c2cccc(C)c2)cc1 the results were PV pol inh 104.0 and PV pol inh intensity 97.0.
Cc1cccc(C)c1NC(=O)C1CCCN1S(=O)(=O)c1cccc2nsnc12 (stereo unspecified) was read as PV pol inh 106.0 and PV pol inh intensity 110.0.
`COc1ccc(-c2nc(C)c(CCNC(=O)c3c(F)cccc3F)s2)cc1` gave PV pol inh 109.0 and PV pol inh intensity 111.0.
Screening Cc1ccc(NC(=O)C(=O)NCC(c2cccnc2)N2CCOCC2)cc1C (stereo unspecified) returned PV pol inh 102.0 and PV pol inh intensity 97.0.
`O=c1ccc(-c2ccccc2)nn1Cc1ccc(F)cc1Cl` gave PV pol inh 111.0 and PV pol inh intensity 111.0.
COc1cccc(Cn2c(CNC(=O)c3cc([N+](=O)[O-])ccc3Cl)nc3cccnc32)c1 was read as PV pol inh 104.0 and PV pol inh intensity 105.0.
CCCc1cc(=O)[nH]c(SCc2nc(-c3ccccc3F)no2)n1 was read as PV pol inh 105.0 and PV pol inh intensity 92.0.
`CC(C)OC(=O)c1ccc(Cn2nnc3sc4c(c3c2=O)CCCC4)cc1` gave PV pol inh 101.0 and PV pol inh intensity 104.0.
`Cc1cc(C)cc(NC(=O)CCc2c(C)nn(-c3ccc(N4CCCC4)nn3)c2C)c1` gave PV pol inh 106.0 and PV pol inh intensity 103.0.
`COc1cc(NC(=O)C2CCN(c3nnc(C)c4c(C)n(-c5ccccc5)nc34)CC2)cc(OC)c1` gave PV pol inh 106.0 and PV pol inh intensity 111.0.
Screening CCOC(=O)c1cnc2ccc(OC)cc2c1Nc1ccc(OCc2ccccc2Cl)cc1 returned PV pol inh 99.0 and PV pol inh intensity 101.0.
`CCS(=O)(=O)N1CCc2cc(C(=O)NCc3ccccc3)ccc21` gave PV pol inh 101.0 and PV pol inh intensity 111.0.
Screening COc1ccc(-c2nnc(SCC(=O)Nc3ccc(Cl)cc3)s2)cc1 returned PV pol inh 108.0 and PV pol inh intensity 108.0.
Screening Cc1cc(C)c(Cn2c3ccccc3c3cnn(CC(=O)NCCc4ccccc4)c(=O)c32)c(C)c1 returned PV pol inh 106.0 and PV pol inh intensity 101.0.
`CCn1c2c(c(=O)n3ncc(C(=O)N4CCN(c5ccc(Cl)cc5)CC4)c13)CN(Cc1ccc(OC)cc1)CC2` gave PV pol inh 115.0 and PV pol inh intensity 103.0.
Cc1cccc(CSc2nc(-c3cccs3)ccc2C#N)c1 was read as PV pol inh 106.0 and PV pol inh intensity 110.0.
For O=C(NC(=O)c1ccc(F)cc1)Nc1ccc(-c2cc(C(F)(F)F)nn2-c2ccccc2)cc1 the results were PV pol inh 107.0 and PV pol inh intensity 109.0.
`CCOC(=O)C1=C(CN2CCN(c3ccccc3F)CC2)NC(=O)NC1c1ccc(Cl)cc1` (stereo unspecified) gave PV pol inh 109.0 and PV pol inh intensity 111.0.

Reprinted at random: 7 entries already listed, in no set order.
`CC(C)OC(=O)c1ccc(Cn2nnc3sc4c(c3c2=O)CCCC4)cc1` gave PV pol inh 101.0 and PV pol inh intensity 104.0.
`CCS(=O)(=O)N1CCc2cc(C(=O)NCc3ccccc3)ccc21` gave PV pol inh 101.0 and PV pol inh intensity 111.0.
`CCOC(=O)C1=C(CN2CCN(c3ccccc3F)CC2)NC(=O)NC1c1ccc(Cl)cc1` (stereo unspecified) gave PV pol inh 109.0 and PV pol inh intensity 111.0.
`Cc1cc(C)cc(NC(=O)CCc2c(C)nn(-c3ccc(N4CCCC4)nn3)c2C)c1` gave PV pol inh 106.0 and PV pol inh intensity 103.0.
`COc1cc(NC(=O)C2CCN(c3nnc(C)c4c(C)n(-c5ccccc5)nc34)CC2)cc(OC)c1` gave PV pol inh 106.0 and PV pol inh intensity 111.0.
Screening COc1ccc(-c2nnc(SCC(=O)Nc3ccc(Cl)cc3)s2)cc1 returned PV pol inh 108.0 and PV pol inh intensity 108.0.
Screening CCOC(=O)c1cnc2ccc(OC)cc2c1Nc1ccc(OCc2ccccc2Cl)cc1 returned PV pol inh 99.0 and PV pol inh intensity 101.0.

(listing goes on)
For CCc1nnc(SCc2nc(-c3ccc(OC)cc3)oc2C)c2cc3sccc3n12 the results were PV pol inh 103.0 and PV pol inh intensity 108.0.
O=C(CSc1ccccc1)N1CCc2c([nH]c3ccccc23)C1c1ccc(Cl)cc1 (stereo unspecified) was read as PV pol inh 104.0 and PV pol inh intensity 105.0.
Screening Cc1nnc(NC(=O)c2nc(SC(C)C)ncc2Cl)s1 returned PV pol inh 107.0 and PV pol inh intensity 112.0.
`Cc1cc(Nc2ccc(Cl)cc2C)nc(-n2nc(C)cc2C)n1` gave PV pol inh 112.0 and PV pol inh intensity 113.0.
`Cc1ccc(CCNC(=O)c2cc3sccc3n2Cc2ccc(C)cc2)cc1` gave PV pol inh 105.0 and PV pol inh intensity 114.0.
Screening COc1cc(-c2nnc(SCCOc3cc(C)cc(C)c3)o2)cc(OC)c1OC returned PV pol inh 115.0 and PV pol inh intensity 111.0.
Screening CCOC(=O)CNC(=O)CSc1cn(CC(=O)N2CCCCCC2)c2ccccc12 returned PV pol inh 114.0 and PV pol inh intensity 120.0.
Screening Cc1ccc(C)c(N2CCN(CCCNC(=O)c3ccc4nc(N5CCCCC5)sc4c3)CC2)c1 returned PV pol inh 107.0 and PV pol inh intensity 110.0.
COc1ccc(Cl)cc1C1CC(=O)Nc2cc3c(cc21)OCCO3 (stereo unspecified) was read as PV pol inh 102.0 and PV pol inh intensity 103.0.
CCOc1ccc(-c2c(C)nn3c(C)c(C(=O)NCC(C)c4ccccc4)cnc23)cc1OCC (stereo unspecified) was read as PV pol inh 102.0 and PV pol inh intensity 105.0.
For Cc1c(CNC2CCCCCC2)c(C(=O)O)c(C)n1Cc1c(F)cccc1Cl the results were PV pol inh 101.0 and PV pol inh intensity 104.0.
Screening Cc1cccc(OC(C)C(=O)Nc2ncn[nH]2)c1 (stereo unspecified) returned PV pol inh 104.0 and PV pol inh intensity 106.0.
CCOc1cc2sc(N3CCC(C(=O)Nc4ccc(C(C)C)cc4)CC3)nc2cc1Br was read as PV pol inh 107.0 and PV pol inh intensity 108.0.
`CCOc1ccc(CCNC(=O)c2sc3ncccc3c2-n2cccc2)cc1OCC` gave PV pol inh 103.0 and PV pol inh intensity 106.0.
`CC(=O)Nc1ccc(C2Nc3c(C)cc(C)cc3-c3cc(C)nn32)cc1` (stereo unspecified) gave PV pol inh 102.0 and PV pol inh intensity 104.0.
Screening COc1ccc(Br)cc1CNC(=O)Cn1ncn2nc(-c3cccs3)cc2c1=O returned PV pol inh 102.0 and PV pol inh intensity 104.0.
COc1ccc(CN2CCc3c(c(=O)n4ncc(C(=O)N5CCN(c6ccccc6OC)CC5)c4n3C)C2)cc1 was read as PV pol inh 103.0 and PV pol inh intensity 106.0.
For Cc1c(Cl)cccc1NC(=O)N1CCC(CN2CCOCC2)CC1 the results were PV pol inh 112.0 and PV pol inh intensity 115.0.
`COc1ccc2nc(SCC(O)c3cccc(Br)c3)[nH]c2c1` (stereo unspecified) gave PV pol inh 105.0 and PV pol inh intensity 107.0.
Cc1ccc(-c2nc(Cn3c(=O)cc(-c4ccccc4)c4c(C)nn(C)c43)c(C)o2)cc1 was read as PV pol inh 106.0 and PV pol inh intensity 105.0.
`COc1ccc(Cl)cc1S(=O)(=O)N1CCN(CC(=O)Nc2ccccc2C(F)(F)F)CC1` gave PV pol inh 104.0 and PV pol inh intensity 103.0.
Screening Cc1cc(C(=O)Nc2ccc(C(C)C)cc2)c2c(C)nn(-c3ccccc3)c2n1 returned PV pol inh 110.0 and PV pol inh intensity 111.0.
For COc1ccc(C2C(=O)N(C3CCCCCC3)CC(=O)N2CCc2ccccc2)cc1 (stereo unspecified) the results were PV pol inh 101.0 and PV pol inh intensity 99.0.
`Cc1ccccc1-n1c(=O)c2ccccc2n(Cc2ccc(F)cc2)c1=O` gave PV pol inh 110.0 and PV pol inh intensity 111.0.
Screening O=C1CC(c2ccc(F)cc2)c2c(c3ccccc3oc2=O)O1 (stereo unspecified) returned PV pol inh 105.0 and PV pol inh intensity 107.0.
For COc1ccc(CNC(=O)C2CCN(c3nnc(-n4cccc4CNc4ccc(C)cc4)s3)CC2)c(OC)c1 the results were PV pol inh 110.0 and PV pol inh intensity 110.0.
Screening CCCCSc1ncnc2c1c(-c1ccccc1)cn2-c1cccc(F)c1 returned PV pol inh 100.0 and PV pol inh intensity 93.0.
Screening O=C(NCCc1csc(-c2cccnc2)n1)c1ccc(F)c(F)c1 returned PV pol inh 99.0 and PV pol inh intensity 96.0.
For Cc1ccc(OC(=O)CSc2nnc(-c3cccs3)o2)cc1 the results were PV pol inh 97.0 and PV pol inh intensity 104.0.
Cc1ccn2c(Nc3ccccc3C)c(-c3cccnc3)nc2c1 was read as PV pol inh 111.0 and PV pol inh intensity 111.0.
For COc1ccc(-c2nc3sc(CCNC(=O)C(=O)Nc4ccccc4C#N)c(C)n3n2)cc1 the results were PV pol inh 115.0 and PV pol inh intensity 106.0.
`Cc1ccc(CN(Cc2ccco2)C(=O)COc2ccc(C(C)C)cc2)cc1` gave PV pol inh 105.0 and PV pol inh intensity 99.0.
Screening Cc1ccc(CNC(=O)CSc2nc3ccsc3c(=O)n2Cc2ccccc2F)cc1 returned PV pol inh 104.0 and PV pol inh intensity 100.0.
